Compound activity from PubChem.
gsp agonist – agonists of gsp mutant (McCune-Albright syndrome) | gsp mutant cells, cAMP HTRF, 30 min; control for the full effect not named in the record | AID 624287 | hit rate 0.13% among 340,000 | Potency, µM (top dose mostly 76.9 µM), for inactives: top-dose activation (cAMP increase), most hits filed as activators; active = well fitted activation curve with a large enough effect; inconclusive = small, poorly fitted or top-dose-only effect, or another doubt; inactive = no such curve, though single readings can be large or run the other way; cell line not stated here;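 further: phosphodiesterase inhibitor Ro 20-1724 added with compounds to block cAMP breakdown; potency means the concentration at half of the fitted maximal effect; nearly all actives have a fitted effect of over 60% in size; about a fifth of the inactives were tested at one dose only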
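Cells stably selected in G418 were plated at 2000/well, grown 16-24 hr, then given compounds in DMSO with the PDE inhibitor […] (300 uM solution added) for 30 min at 37C; cAMP was read by HTRF.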
Menin MLL FP FL – displaces fluorescein MLL peptide from human menin. Fluorescence polarization, fluorescein-MLL peptide displacement from menin. FP activity change, % at 61.4 µM. 290,000 tested, under 10 active. AID 1766; inconclusive = falling polarisation curve, or a change in total fluorescence; inactive = total fluorescence flat and polarisation flat or rising; no compound was filed as active; the % refers to the polarisation; negative = inhibition;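 further: % of control where 0% means no effect; inhibitors lower the polarisation; unlabelled MLL peptide was the positive control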
TRPML1 blocker – inhibitors of human TRPML1 channel; hit rate 0.02% among 390,000; TRPML1-inducible cells, Ca2+ dye fluorescence, FDSS; hits give low values; inhibition of EC80 agonist-evoked calcium signal; activity change, negative = inhibition, % (test concentration not listed); in the data active means activity change below about -50%; inconclusive means about -30% to -50%; inactive means above about -30%;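 further: stimulus is agonist 54-4 at its EC80 concentration; on the % scale 0 is the no-effect control and ±100 the full control effect; compound concentration not given in the record; the text of the record puts the active cut at -80%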
Target sequence (Q9GZU1 whole entry, looked up): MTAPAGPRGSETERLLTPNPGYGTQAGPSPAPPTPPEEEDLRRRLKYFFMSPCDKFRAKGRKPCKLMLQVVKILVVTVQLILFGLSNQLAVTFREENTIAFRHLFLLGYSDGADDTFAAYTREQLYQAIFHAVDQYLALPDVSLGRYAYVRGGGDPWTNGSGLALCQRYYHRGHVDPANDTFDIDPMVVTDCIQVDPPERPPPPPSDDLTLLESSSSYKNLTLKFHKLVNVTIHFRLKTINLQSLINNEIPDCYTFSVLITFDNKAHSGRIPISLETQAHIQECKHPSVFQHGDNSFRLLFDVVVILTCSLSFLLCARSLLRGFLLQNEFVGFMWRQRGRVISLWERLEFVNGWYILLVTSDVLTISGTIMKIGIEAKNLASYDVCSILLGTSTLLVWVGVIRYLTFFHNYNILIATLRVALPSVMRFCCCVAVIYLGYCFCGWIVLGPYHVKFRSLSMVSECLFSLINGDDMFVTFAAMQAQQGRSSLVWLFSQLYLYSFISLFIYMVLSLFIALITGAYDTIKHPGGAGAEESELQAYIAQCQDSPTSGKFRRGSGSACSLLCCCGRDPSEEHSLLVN
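TRPML1-DL cells, Tet-induced overnight (~16 h, 37 °C) at 1,500 cells/well, were loaded with Ca8 no-wash dye plus quencher for 45-90 min at room temperature. Compounds were pinned during FDSS kinetic reading; agonist 54-4 at EC80 (4 uM final) then added.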
TRPML1 agonist – agonists of human TRPML1 channel | hit rate 0.12% among 410,000 | Q9GZU1 | AID 624414 | TRPML1-expressing cells, Ca2+ dye fluorescence, FDSS; host cell line not named in the record; reference of the full effect not given here | activation, % (concentration not given with the values); in the data active = activation above about 50%; inconclusive = about 30% to 50%; inactive = below about 30%; further: 0% is about no effect; the text of the record puts the active cut at 80%
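TRPML1-DL cells, Tet-induced overnight (~16 h, 37 degrees C), loaded 45-90 min at room temperature with Ca8 no-wash calcium dye plus quencher. FDSS fluorescence: 10 s baseline, compound pin-transfer, 110 s agonist read, then EC80 54-4 (4uM final) and 110 s antagonist read.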
gsp antag – gsp mutant antagonism. gsp-mutant cells, cAMP HTRF, 30 min; control for the full effect not named in the record. Potency, µM (highest dose often 76.9 µM), for inactives: at the top dose activity change, negative = inhibition, hits mostly inhibitors. hit rate 0.4% among 340,000; active = falling curve of any shape with a large fitted effect; inconclusive = falling curve, mostly with a smaller effect; inactive = flat or rising curve; cell line not stated here;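 further: intracellular cAMP measured with PDE inhibitor Ro 20-1724 present during compound exposure; potency means the concentration at half of the fitted maximal effect; on the % scale 0 is the no-effect control and ±100 the full control effect; nearly all actives have a fitted effect of over 65% in size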
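Measurement of cellular cAMP by homogeneous time-resolved fluorescence following a 30 min compound exposure at 37C. The PDE inhibitor […] was present throughout; the assay buffer was DPBS with 0.05% BSA and 0.005% Tween 20.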
ClpP mod – qHTS Assay for Activators of ClpP; Potency, µM (series often up to 57.5 µM), for inactives: at the highest dose activity change, negative = active; ATP-dependent Clp protease proteolytic subunit (Bacillus subtilis (strain 168)), P80244; hit rate 1.9% among 340,000; purified B. subtilis ClpP, FRET peptide cleavage, 20 min; active = well fitted falling curve with a large enough effect; inconclusive = small, poorly fitted or top-dose-only effect; inactive = no such curve, though single readings can be large or run the other way; further: potency means the concentration at half of the fitted maximal effect; the source files actives as falling curves though it sought activators and does not explain the sign; nearly all actives have a fitted effect of over 65% in size; many hits overshoot -100%
Target sequence (P80244 whole entry, looked up): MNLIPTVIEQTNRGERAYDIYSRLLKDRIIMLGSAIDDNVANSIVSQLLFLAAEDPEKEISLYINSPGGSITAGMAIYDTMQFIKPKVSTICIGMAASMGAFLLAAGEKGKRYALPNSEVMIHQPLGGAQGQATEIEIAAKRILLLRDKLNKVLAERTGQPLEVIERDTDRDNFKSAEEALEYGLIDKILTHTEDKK
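Purified B. subtilis ClpP, 10 microg/mL final in Tris/HCl pH8 with KCl, BSA, glycerol and Tween-20, cleaved an Abz/nitrotyrosine-quenched decapeptide. Fluorescence (ex 320, em 430) was read at 0 and 20 min at room temperature. Delta was normalized to 5.8 microM ADEP and DMSO/no-enzyme controls.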
* = called active by the depositor; ? = inconclusive; . = no result given; [ ] = dose if it differs, or a comment. Compounds as they come, and some 2.1% of all compounds hit somewhere here.

SMILES	gsp agonist	Menin MLL FP FL	TRPML1 blocker	TRPML1 agonist	gsp antag	ClpP mod
Cc1cc(Cl)ccc1NC(=O)Cn1cncn1	-7%	4.8	1	0.4	-9%	.
COCC(C)n1c(SC(C)C(=O)NC2CCCCC2C)nc2ccccc2c1=O (stereo unspecified)	-2%[15.4 µM]	.	-6	-0.6	-12%	-0.5%
OC(CN1CCN(c2cccc(C(F)(F)F)c2)CC1)c1c[nH]c2ccccc12 (stereo unspecified)	17%	?	34	-0.2	-14%	-3.6%
Cc1cccc(CNC(=O)c2ccc(-c3nc(CS(=O)(=O)c4ccccc4)c(C)o3)cc2)c1	.	.	15	0.5	.	4.2%
CC(c1ccco1)N(C(=O)Nc1ccccc1)C1CCCCC1 (stereo unspecified)	4%	7.2	18	-0.1	10%	0.4%
COc1ccc2c(=O)c(-c3ccc(C)cc3)c(-c3ccccc3)oc2c1	.	.	-7	0.4	?	-4.3%
CSc1ccccc1NC(=S)Nc1ccccc1C(F)(F)F	-1%	-5.2	-12	0.3	9%	-1.9%
Cc1ccc(S(=O)(=O)N2CCCC(C(=O)NCc3ccccc3F)C2)cc1 (stereo unspecified)	0%[15.4 µM]	1.1	7	0.2	3%	.
COc1ccc(-c2c(C)nn3c(C)cc(C)nc23)cc1	0%[15.4 µM]	-0.7	-12	-0.2	0%	-8.4%
COc1ccc(-c2onc(C)c2C)cc1S(=O)(=O)Nc1cc(Cl)ccc1C	.	.	34	1.8	.	-1.6%
CCOC(=O)C(N=Nc1nn[nH]n1)C(C)=O (stereo unspecified)	13%	.	-5	0.0	.	-7.1%
Cc1cc(C(=O)N/N=C/c2cn(C)nc2C)c2ccccc2n1	10%	.	7	0.1	-2%	1.2%
O=C(CN1CCN(CC(=O)Nc2ccc(Cl)cc2)CC1)Nc1ccc(F)cc1	4%[15.4 µM]	-10	1	-0.7	-3%	-3.1%
COc1ccc(CC(=O)N2CCc3cc(OC)c(OC)cc3C2O)cc1OC (stereo unspecified)	19%	4.2	4	2.3	6%	-26%
COc1ccc(C2SCC(=O)N2CCc2ccc(OC)c(OC)c2)cc1 (stereo unspecified)	-1%	-0.3	4	-0.8	8%	0.1%
CCc1ncc(C(O)c2cccc3ccccc23)n1C (stereo unspecified)	-5%	3.0	-5	0.1	-1%	-3.7%
CCn1c(CCn2c3ccccc3c3ccccc32)n[nH]c1=S	0%	4.0	-21	-0.4	-6%	-14%
CCCCN1C2=NCCCN2c2ccccc21	-3%	4.0	7	0.5	-5%	-0.9%
COc1ccc(-c2ccc3ccccc3n2)cc1OC	-4%[15.4 µM]	-1.2	7	-0.6	8%	.
Cc1ccc(S(=O)(=O)N2CCOCC2)cc1NC(=O)COC(=O)c1n[nH]c(=O)c2ccccc12	12%[15.4 µM]	-1.1	0	1.2	0%	-6.4%
COc1ccccc1Nc1nc2c(s1)CCC2	27%	4.1	-11	1.2	3%	-5.2%
CCCCCNCc1cccn1C	-21%	0.5	-17	-0.6	5%	0.2%
CCOC(=O)C(NC(=O)c1ccccc1)(OCc1ccccc1)C(F)(F)F (stereo unspecified)	-1%[15.4 µM]	1.8	-7	-1.0	12%	0.6%
Cc1cccc(/C=N/NC(=O)c2ccncc2)n1	-2%	-2.1	-1	0.7	8%	-0.1%
CCCN(CCC)C(=O)C1CCN(c2cc(C)nc3c(-c4ccc(Cl)cc4)c(C)nn23)CC1	.	.	40	-0.4	.	-8.2%
(further entries)
SMILES	gsp agonist	Menin MLL FP FL	TRPML1 blocker	TRPML1 agonist	gsp antag	ClpP mod
COc1ccc2[nH]cc(CCNC(=O)C3CCCNC3=O)c2c1 (stereo unspecified)	?	1.7	3	0.0	-7%	-16%
CCC(C(=O)Nc1cc(C)cc(C)n1)c1ccccc1 (stereo unspecified)	2%[15.4 µM]	.	38	2.7	-20%	.
Cc1ccc(C(=O)N2CCCC(CCC(=O)N3CCN(c4ccccn4)CC3)C2)cc1C (stereo unspecified)	-16%	.	1	-1.6	-16%	4.0%
O=C(NCc1ccc(Cl)cc1)c1ccc(COCC(F)(F)F)o1	-24%[15.4 µM]	3.6	2	0.8	3%	-3.9%
Cn1c(=O)c2c(O)c(C=NCc3ccccc3)c(=O)n(C)c2n(C)c1=O	13%	1.9	-7	0.0	13%	.
CC(C)N1C(=O)C(=O)N(CC(=O)N2c3ccccc3NC(=O)CC2C)C1=O (stereo unspecified)	-3%	.	16	-0.3	11%	-1.0%
O=C(CN1C(=O)CC(c2ccco2)Sc2ccccc21)Nc1ccc(OC(F)(F)F)cc1 (stereo unspecified)	.	.	-2	2.8	.	-1.3%
CCCCOC(=O)CNc1nnc(SCC(=O)OCC)[nH]c1=O	?	-1.2	-2	-1.0	-2%	0.4%
Cn1c(Cc2cccs2)nnc1SC/C=C/c1ccccc1	15%	5.0	9	0.6	-11%	-1.0%
Cc1cccc(N2CCN(S(=O)(=O)c3ccc(F)c(C(=O)Nc4ccc(C(C)C)cc4)c3)CC2)c1C	.	.	1	-0.8	.	-1.6%
C#CCSc1n[nH]c(=O)n1-c1cccc(C(F)(F)F)c1	12%	-3.6	-4	1.9	-5%	.
O=C(NCCCN1CCOCC1)c1onc(CSc2nc3ccccc3[nH]2)c1C(=O)NCCCN1CCOCC1	4%	-5.7	0	0.8	4%	-4.7%
Cc1sc(NC(=O)CN(Cc2ccc(F)cc2)C(=O)C(C)C)c(C(N)=O)c1C	7%	-1.1	-14	0.3	0%	5.5%
Cc1ccn2c(NC3CCCC3)c(-c3ccccn3)nc2c1	4%[15.4 µM]	0.4	15	3.5	-16%	.
COc1ccc(NC(=O)CCC(=O)N/N=C/c2cn(C)nc2C)cc1	0%[15.4 µM]	-0.4	-3	0.5	11%	.
CCc1nnc(NC(=O)CSc2nnc(-c3ccccc3O)n2CC)s1	13%	2.3	-12	2.7	-7%	-0.5%
O=C(CSc1nnc(CNC(=O)c2c(F)cccc2F)o1)NCCc1ccccc1	?	-0.2	7	0.1	6%	0.0%
CCc1c(C)[nH]c2nc3ccccc3n2c1=O	8%	0.7	22	0.0	15%	28µM*
CCCCC(NC(=O)c1ccc(C#N)cc1)C(=O)NCCC (stereo unspecified)	.	.	4	-0.6	14%	-0.5%
CCOc1ccc(-c2noc([C@@H]3O[C@H](CO)[C@@H](O)[C@H]3O)n2)cc1	.	.	23	0.0	.	-1.4%
CCc1cccc(CC)c1N1C(=O)C2=C(SCCCS2)C1=O	15%	.	0	25	.	-0.3%
O=S(=O)(NCc1ccc(F)cc1)c1ccc(-n2cccn2)cc1	?	.	-3	-1.0	-8%	0.0%
O=C1N(Cc2ccccc2)c2ccc(Cl)cc2C12OCCO2	-85%[inhibitor]	4.1	-4	1.3	-2%	.
CCC(C(=O)O)n1ccc2cc(S(=O)(=O)N3CCCCC3)ccc21 (stereo unspecified)	.	.	15	1.8	.	-0.4%
CC(C)C(=O)Nc1cccc(C(=O)Nc2ccccc2C(=O)O)c1	-2%	0.1	8	1.1	?	-1.0%

Single entries from the entries so far.
`Cn1c(=O)c2c(O)c(C=NCc3ccccc3)c(=O)n(C)c2n(C)c1=O` | gsp antag: 13%
`O=S(=O)(NCc1ccc(F)cc1)c1ccc(-n2cccn2)cc1` | ClpP mod: 0.0%
`Cc1cccc(N2CCN(S(=O)(=O)c3ccc(F)c(C(=O)Nc4ccc(C(C)C)cc4)c3)CC2)c1C` | TRPML1 blocker: 1

Other structures
SMILES	gsp agonist	Menin MLL FP FL	TRPML1 blocker	TRPML1 agonist	gsp antag	ClpP mod
Cc1ccc(NC(=O)c2ccc(NCCCN3CCOCC3)c([N+](=O)[O-])c2)cc1Cl	1%	2.3	64	-0.2	-8%	-1.1%
COc1ccccc1NC(=O)CN1C(=O)C(c2ccc(F)cc2)=NC1(C)C	.	.	26	-0.1	.	-2.0%
CC(=O)c1cc(F)c(N2CCN(c3ccc([N+](=O)[O-])cc3F)CC2)cc1C	-22%	1.0	6	-0.6	0%	1.2%
CCOC(=O)C1(Cc2ccc(O)cc2)NC(c2ccco2)C2C(=O)N(c3ccccc3F)C(=O)C21 (stereo unspecified)	0%	2.0	4	1.4	-4%	-4.4%
COc1ccc(OC)c(NC(=O)CCN2CCN(c3ccccc3F)CC2)c1	-10%	-1.6	0	0.0	2%	-1.6%
CCN(C(=O)CSc1nc2cc(C(F)(F)F)ccc2n1Cc1ccccc1)C1CCS(=O)(=O)C1 (stereo unspecified)	-6%	4.8	-1	0.1	-17%	0.6%
Cc1cc(C)nc(NS(=O)(=O)c2ccc(NC(=S)NC(=O)CC(C)C)cc2)n1	-2%	-4.2	-10	1.9	7%	2.6%
CCOC(=O)c1cn2nc(Oc3ccc(C#N)cc3)ccc2n1	16%	-0.6	4	0.2	1%	.
CC1CC(C)CN(C(=O)c2ccc3c(=O)n(Cc4ccc5c(c4)OCO5)c(=S)[nH]c3c2)C1 (stereo unspecified)	-45%[inhibitor]	-3.2	-2	-0.6	-10%	-2.8%
C=CCn1c(SCC(=O)Nc2c(C)n(C)n(-c3ccccc3)c2=O)nnc1-c1ccncc1	-53%[inhibitor]	.	-13	-0.4	.	0.3%
Cc1cccc(OCCCC(=O)Nc2ccc(N3CCOCC3)cc2)c1	-6%	2.5	-4	0.5	-13%	-2.2%
Cc1cc(C)c(NC(=O)COC(=O)C2CCCO2)c(C)c1 (stereo unspecified)	-18%	.	-14	-0.1	6%	.
CCn1cc(S(=O)(=O)c2cc(C)cc(C)c2)c(=O)c2cc(F)c(N3CCCCC3)cc21	.	.	9	2.7	.	?
O=C(OCC(=O)N1CCCC1)c1cc(Br)ccc1Cl	13%	-0.3	-9	0.5	4%	.
COc1cccc(C(=O)NCCSc2ccc(Br)cc2)c1	-3%[15.4 µM]	0.5	-2	0.9	-8%	.
O=C(N/N=C/c1ccc([N+](=O)[O-])o1)c1cc(-c2ccncc2)nc2ccccc12	?	3.9	-2	0.0	1%	-3.4%
CCCCNC(=O)CSc1nc2c(sc(=S)n2-c2cc(Cl)ccc2OC)c(=O)[nH]1	?	7.8	-8	-0.3	1%	1.5%
COc1ccccc1C(=O)NCC(=O)N/N=C/c1ccc2c(c1)OCO2	30%	-7.1	12	0.9	-5%	.
COc1ccc(Cc2nnc(SCC(=O)N(C)c3ccccc3)o2)cc1	22%	.	32	0.3	-8%	-3.6%
C/C=C/c1ccc(OCCOCCOc2cccc3cccnc23)c(OC)c1	-9%	.	-20	1.0	-7%	-1.8%
COc1cccc(NC(=O)CSCC(=O)Nc2ccccc2)c1	-9%	0.5	14	-0.9	0%	-0.9%
Cc1ccc(NC(=O)c2cnc(SCC(=O)N3CCOCC3)n(C)c2=O)cc1C	.	.	24	-0.5	.	-6.5%
